Menin-MLL FL inh: menin-MLL binding inhibition, fluorescein peptide; Fluorescence polarization, fluorescein-MLL peptide displacement from menin; FP activity change, % at 61.4 µM; 290,000 tested, under 10 active; inconclusive = falling polarisation curve, or a change in total fluorescence; inactive = total fluorescence flat and polarisation flat or rising; no compound was filed as active; the % refers to the polarisation; negative = inhibition;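 further: % of control where 0% means no effect; inhibitors lower the polarisation; unlabelled MLL peptide was the positive control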
Sfp PPTase inh: inhibitors of Bacillus subtilis Sfp phosphopantetheinyl transferase; Q9F4F7; Biochemical Sfp PPTase activity, qHTS; Potency, µM, without a hit: max response, negative = inhibition, usual class: inhibitors; 310,000 tested, 3.5% active; AID 1490; active means well fitted inhibition curve with a large enough effect; inconclusive means small, poorly fitted or top-dose-only effect, or another doubt; inactive means no such curve, though single readings can be large or run the other way;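 further: the enzyme is Sfp with the accession as filed and its product quenches rhodamine fluorescence; potency means the concentration at half of the fitted maximal effect; 0% = enzyme reaction without inhibitor and -100% = no enzyme wells; top concentration of the series not given in the record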
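After 15 min at room temperature with compound, 15 nM Sfp received 5 uM rhodamine-CoA plus 12.5 uM BHQ-2-ybbR (50 mM Hepes pH 7.6, 10 mM MgCl2). Rate came from the fluorescence difference over 30 min, ex 525/em 598 nm.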
PINK1 expr mod: changes PINK1 expression. Potency, µM (top dose mostly 76.6 µM), inactives show at the highest dose activation (PINK1 increase), most hits filed as activators. 410,000 tested, 0.2% active. AID 624263. PINK1 immunofluorescence, high-content cytometry, 24 h; active = well fitted activation curve with a large enough effect; inconclusive = small, poorly fitted or top-dose-only effect; inactive = flat fitted curve, though single readings scatter; cell line not stated here;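 further: potency means the concentration at half of the fitted maximal effect; % of control where 0% means no effect; nearly all actives have a fitted effect of over 65% in size; a mitochondrial uncoupler was the plate control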
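PINK1 protein level read as immunofluorescence by microplate cytometer in a fixed, stained stable cell line after 24 h exposure to five compound concentrations, with CCCP as control.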
ClpP mod: qHTS Assay for Activators of ClpP; ATP-dependent Clp protease proteolytic subunit (Bacillus subtilis (strain 168)), P80244; AID 651965, 2013; purified B. subtilis ClpP, FRET peptide cleavage, 20 min; 340,000 tested, 1.9% active; Potency, µM (series often up to 57.5 µM), inactives show at the highest dose activity change, negative = active; active = well fitted falling curve with a large enough effect; inconclusive = small, poorly fitted or top-dose-only effect; inactive = no such curve, though single readings can be large or run the other way; further: potency means the concentration at half of the fitted maximal effect; the source files actives as falling curves though it sought activators and does not explain the sign; nearly all actives have a fitted effect of over 65% in size; many hits overshoot -100%
Target sequence (P80244 whole entry, looked up): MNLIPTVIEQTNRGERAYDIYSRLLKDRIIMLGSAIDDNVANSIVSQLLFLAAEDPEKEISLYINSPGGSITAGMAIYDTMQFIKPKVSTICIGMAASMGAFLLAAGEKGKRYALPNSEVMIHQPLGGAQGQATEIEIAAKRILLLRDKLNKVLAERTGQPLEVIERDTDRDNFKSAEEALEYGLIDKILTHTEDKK
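FRET quenching reversal measured ClpP activation: 10 microg/mL B. subtilis ClpP at pH 8 with the FRET-FV decapeptide, read at 430 nm after 320 nm excitation. The 20-min minus 0-min signal was scaled between DMSO/no-enzyme wells and ADEP (5.8 microM final).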
D2 ag: agonists of human D2 dopamine receptor (beta-arrestin) | P14416 | DiscoveRx PathHunter D2 beta-arrestin, luminescence, 90 min; 100% = 57 uM dopamine signal | activation, % (concentration not given with the values) | 360,000 tested, 0.084% active | AID 624465; in the data active = activation above about 40%; inconclusive = about 15% to 40%; inactive = below about 15%; further: compound concentration not given in the record; the text of the record calls up to 30% inactive
Target sequence (P14416 whole entry, looked up): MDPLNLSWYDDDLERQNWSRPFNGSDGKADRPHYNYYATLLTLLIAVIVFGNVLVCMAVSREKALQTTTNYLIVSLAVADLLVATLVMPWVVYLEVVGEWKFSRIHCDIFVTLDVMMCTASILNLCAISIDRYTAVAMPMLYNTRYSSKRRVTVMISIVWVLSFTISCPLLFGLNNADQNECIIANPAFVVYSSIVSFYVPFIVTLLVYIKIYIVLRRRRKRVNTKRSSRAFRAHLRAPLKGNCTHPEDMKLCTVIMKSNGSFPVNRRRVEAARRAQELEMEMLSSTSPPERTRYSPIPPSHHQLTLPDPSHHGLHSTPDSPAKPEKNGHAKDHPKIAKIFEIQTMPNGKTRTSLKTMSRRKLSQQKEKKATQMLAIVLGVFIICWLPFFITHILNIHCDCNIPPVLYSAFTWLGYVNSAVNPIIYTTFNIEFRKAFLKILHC
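Agonist mode: compounds alone added to overnight-plated D2 PathHunter cells for 90 min at 37 C, with 57 uM final dopamine (EC100) defining full response. Beta-arrestin recruitment detected by chemiluminescent reagent, read after 1 h at ambient temperature.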
gsp ag: activates gsp, the McCune-Albright syndrome mutation; gsp mutant cells, cAMP HTRF, 30 min; control for the full effect not named in the record; Potency, µM (series often up to 76.9 µM), without a hit: at the highest dose activation (cAMP increase), actives largely listed as activators; 340,000 tested, 0.13% active; AID 624287; active = well fitted activation curve with a large enough effect; inconclusive = small, poorly fitted or top-dose-only effect, or another doubt; inactive = no such curve, though single readings can be large or run the other way; cell line not stated here;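 further: phosphodiesterase inhibitor Ro 20-1724 added with compounds to block cAMP breakdown; potency means the concentration at half of the fitted maximal effect; nearly all actives have a fitted effect of over 60% in size; about a fifth of the inactives were tested at one dose only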
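Cells in DMEM/10% FBS with G418 were pretreated with compounds in DMSO plus […] (300 uM stock) for 30 min at 37C. cAMP was measured by HTRF (cAMP-d2 plus anti-cAMP antibody-K) after 30 min at room temperature.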
gsp antag: antagonists of gsp mutant (McCune-Albright syndrome) | gsp-mutant cells, cAMP HTRF, 30 min; control for the full effect not named in the record | Potency, µM (doses to about 76.9 µM), for inactives: at the highest dose activity change, negative = inhibition, hits mostly inhibitors | 340,000 tested, 0.4% active; active = falling curve of any shape with a large fitted effect; inconclusive = falling curve, mostly with a smaller effect; inactive = flat or rising curve; cell line not stated here;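 further: intracellular cAMP measured with PDE inhibitor Ro 20-1724 present during compound exposure; potency means the concentration at half of the fitted maximal effect; on the % scale 0 is the no-effect control and ±100 the full control effect; nearly all actives have a fitted effect of over 65% in size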
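HTRF cAMP read-out (cAMP-d2 plus anti-cAMP antibody-K in lysis buffer, 30 min RT). Before lysis, cells are exposed to compounds with […] for 30 min at 37C in DPBS containing Ca/Mg, BSA and Tween 20.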
* marks the source's active call; other numbers are inactive results; ? = inconclusive; nt = not tested or not shown; & = joins results of further samples; [ ] = another dose, or the depositor's remark.

SMILES	Menin-MLL FL inh	Sfp PPTase inh	PINK1 expr mod	ClpP mod	D2 ag	gsp ag	gsp antag
CCCCN1c2cc(C)c(O)cc2C(C(=O)OCC)C1C (stereo unspecified)	2.1	0%	4.5%[38.3 µM]	-2.9%	1.5	?	1%
COc1ccc(C2=NCC(CSc3nnnn3C)S2)cc1 (stereo unspecified)	-0.5	3%	2.4%	-1.1%	-2.1	-3%	8%
C=CCn1c(SCC(=O)Nc2ccc3c(c2)OCCO3)nnc1-c1ccccn1	4.2	1%	-4.0%	0.6%	-2.2	5%	-2%
N#Cc1ccc(NC(=O)Cn2cnc(S(=O)(=O)N3CCc4ccccc43)c2)cc1	6.1	16%	-0.2%	-0.5%	0.7	18%	-17%
O=C(CCc1nc(-c2ccccc2F)no1)Nc1ccc(Oc2ccccc2)cc1	0.5	22%	?	-0.4%	1.0	14%	1%
CCOc1cc(/C=C(\C(=O)O)c2ccc(S(=O)(=O)N3CCCC3)s2)ccc1OC	nt	nt	-1.0%	-17%	2.5	2%	7%
CC(=O)c1cc(C(c2csc(C(C)=O)c2)c2csc(C(C)=O)c2)cs1	5.4	1%	-1.2%	2.0%	-1.2	2%	1%
CN(C)CCNc1ccc(Cl)cc1[N+](=O)[O-]	-3.0	8%	-1.7%	1.0%	-2.0	-27%	17%
CCCc1nc2ccc(Br)cn2c1Cc1cccc(Cl)c1	nt	nt	1.0%	-5.7%	-6.3	nt	nt
CCCOc1ccc(F)cc1-c1cc(C(=O)NC(C)C)[nH]n1	nt	nt	-0.3%	-0.6%	4.9	nt	nt
CC(CCc1ccccc1)NC(=O)CN1CCOc2ccccc21 (stereo unspecified)	nt	nt	-0.6%	0.2%	5.2	0%	7%
Cc1ccccc1-c1ccc2ncnc(N(C)C)c2c1	7.7	?	1.0%	nt	nt	nt	nt
N=C1C(c2ccccc2)=C(O)CN1c1cccc(S(N)(=O)=O)c1	-0.3	34%[activator]	-0.2%	nt	-3.1	-31%	2%
O=C(CSc1nnc(-c2ccccc2)o1)NCC1CCCCC1	0.9	-8%	?	0.2%	-1.8	-11%	0%
Cn1ncc([N+](=O)[O-])c1C(=O)Nc1ccccc1C#N	nt	nt	1.3%	0.0%	-1.4	-4%	nt
CCOC(=O)C1=C(C)Nc2nc(SCc3cccnc3)nn2C1c1ccc(OC)cc1 (stereo unspecified)	2.9	20%	12%	18%	3.0	-11%	-16%
Cc1ccc(N2CC(=O)Nc3c(oc4nc(-c5ccccc5)cc(C)c34)C2=O)cc1	1.2	12%	8.2%	nt	2.4	0%[15.4 µM]	20%
COc1ccccc1NC(=O)C1CCCCN1S(=O)(=O)c1ccc(F)cc1 (stereo unspecified)	0.1	1%	-4.6%	-0.8%	3.1	-8%	-8%
Cn1c(=O)c2c(SCC(=O)Nc3cccc(F)c3)nc(-c3ccco3)nc2n(C)c1=O	nt	3%	?	2.2%	-0.7	-1%	8%
O=C(NCc1ccco1)C12CN(Cc3ccccc3)CC1C(c1cccc([N+](=O)[O-])c1)=NO2 (stereo unspecified)	-0.8	1%	-0.1%	-3.3%	-0.9	nt	-6%
COc1ccc(S(=O)(=O)c2ccc(O)cc2)cc1	3.1	5%	1.6%	1.2%	3.4	-30%[inhibitor]	-8%
Nc1nc(SCc2ccccc2)cc(SCc2ccccc2)n1	nt	nt	7.4%	nt	5.6	-33%[inhibitor]	0%
COc1ccc(-c2c(C#N)c(N)n(N)c(=O)c2C#N)cc1Cl	7.7	-15%	4.2%	nt	-1.0	10%[15.4 µM]	-25%
COc1cccc(-n2cnc3sc(C)c(C)c3c2=O)c1	0.9	-11%	6.3%	-14%	-3.4	3%	3%
COc1ccc(S(=O)(=O)N2CCOC2CNC(=O)C(=O)NCc2ccncc2)cc1 (stereo unspecified)	nt	20%	-0.5%	1.3%	-0.5	28%	11%
O=C(COC(=O)CCN1C(=O)c2cccc([N+](=O)[O-])c2C1=O)NC1CCS(=O)(=O)C1 (stereo unspecified)	-0.1	15%	2.3%	nt	3.6	-10%[15.4 µM]	-4%
Cc1cc(S(=O)(=O)NCc2ccccc2)ccc1OCC(=O)Nc1cccc([N+](=O)[O-])c1	0.3	11%	-1.3%	0.4%	0.6	3%[15.4 µM]	?
CN(CC1CCCN(CCc2cccc(C(F)(F)F)c2)C1)C(=O)c1cc2ccccc2o1 (stereo unspecified)	4.4	-5%	11%	0.0%	-2.8	?	-6%
O=C(O)CCC(=O)Nc1ccc(/C=C/C(=O)C2CC2)cc1	3.3	10%	-0.1%	nt	7.0	34%[15.4 µM]	-5%
Cc1ccc(NS(=O)(=O)c2cc(Br)cnc2N)c(Cl)c1	-8.8	9%	1.5%	1.4%	0.8	1%	-17%
Cc1ccc(C(=O)NNC(=O)CSc2nnc3c(n2)[nH]c2ccc(F)cc23)cc1	?	?	5.2%[38.3 µM]	-2.3%	-2.5	-16%	0%
Cc1coc2c(C)c3oc(=O)c(CCC(=O)NCCCn4ccnc4)c(C)c3cc12	1.9	15%	0.8%	4.5%	-4.8	nt	-9%
O=C(COc1ccc(S(=O)(=O)N2CCCC2)cc1)NCc1cccnc1	5.2	18%	3.2%	nt	-0.5	2%[15.4 µM]	5%
Cn1cccc1CC(=O)NNC(=O)Nc1ccc(Cl)cc1	4.5	1%	3.0%	-4.7%	-0.5	-11%	8%
COc1ccc(N(CC(=O)NCCSc2ccccn2)S(=O)(=O)c2ccc(C)cc2)cc1OC	-1.1	-17%	-0.5%	nt	-3.3	4%	-2%
COc1ccccc1CCNC(=O)c1cnn2c(C(F)F)cc(C)nc12	11	14%	-1.1%	-1.2%	-5.1	?	4%
Cc1nc(=O)c(-c2ccccc2)c(C)n1-c1ccc(C(=O)O)cc1	-1.5	4%	1.9%	-0.4%	-0.9	-30%[inhibitor]	16%
Cn1c(NC(=O)c2cccc(C(F)(F)F)c2)cc(=O)n(C)c1=O	-0.8	18%	3.1%	-1.5%	-0.3	-22%	0%
COC(=O)CN1C(=O)[C@H]2[C@@H](c3ccc(C)o3)N3C(=O)CN(CC4CC4)C(=O)[C@@]3(C)[C@H]2C1=O	6.1	?	1.8%	-1.0%	-0.7	11%	11%
CCCCOP(=O)(c1ccc(N(C)C)cc1)C(O)c1cc(OC)ccc1OC (stereo unspecified)	-0.6	5%	-0.3%	-0.3%	4.3	-21%[15.4 µM]	-46%
CC(C)Cn1cnc2c1c(=O)[nH]c(=O)n2Cc1ccccc1	0.3	10%	0.1%	-0.8%	-1.1	?	-3%
O=C(CSc1cccc[n+]1[O-])c1ccc(Cl)s1	0.2	5%	0.2%	-2.6%	-1.7	-13%[15.4 µM]	1%
CC(=O)Nc1cc2c3c(c1)CC(=O)N3CCC2	1.7	16%	-0.5%	-0.9%	-3.4	-6%	50µM*
O=C(CCN1C(=O)/C(=C/c2cccs2)SC1=S)Nc1ccc(C(=O)O)cc1	?	3%	-1.3%	-0.6%	-1.0	-6%	-11%
CC(NC(=O)OC(C)(C)C)C(=O)Oc1cc2oc(=O)cc(-c3ccccc3)c2cc1Cl (stereo unspecified)	10	11%	-1.7%	-19%	-0.1	9%	-7%
CCCCC[C@H]1CN(C2CCCCC2)C(=O)[C@@H]1CC(=O)NCc1ccc(OC)cc1	5.1	-4%	0.3%	1.9%&4.4%	1.6	20%	1%
COc1ccc(-c2cc(C3CCN(c4cc(Cl)nc(N)n4)CC3)[nH]n2)cc1	5.1	-5%	-3.2%[38.3 µM]	-1.5%	0.0	-4%	?
CC(C)(C)S(=O)(=O)Cc1nc(-c2ccc(Cl)c(Cl)c2)cs1	2.3	-1%	5.1%	nt	2.2	12%[15.4 µM]	-27%
COc1ccccc1CCC(=O)NNC(=O)c1ccncc1	nt	nt	0.8%	nt	-0.5	14%[15.4 µM]	3%
CC(Oc1ccccc1Cl)C(=O)N1CCCN(C)CC1 (stereo unspecified)	-2.4	7%	1.2%	-2.8%	-4.2	-24%[15.4 µM]	13%
CCOc1ccc(NC(=O)C2CCN(S(=O)(=O)c3ccc4c(c3)NC(=O)C(C)S4)CC2)cc1 (stereo unspecified)	nt	13%	18%	3.2%	-4.0	?	?
Cc1ccc2nc(NC(=O)COC(=O)c3ccccn3)sc2c1	-5.1	1%	-2.5%	1.2%	-0.3	-9%[15.4 µM]	15%
CO/N=C(/CN1CCCCC1)c1ccc(Cl)cc1	4.3	7%	4.6%	nt	-0.4	27%	6%
COc1cccc(C(=O)N(c2ccc(OC)cc2OC)C2C=CS(=O)(=O)C2)c1 (stereo unspecified)	0.3	16%	-1.3%[38.3 µM]	-1.9%	-2.3	-5%	-3%
COc1ccccc1CN(C)C(=O)c1ccc2c(c1)NC(=O)CS2	-2.3	12%	-1.1%	-2.5%	-1.5	-24%	29%
Cc1ccc(N2CC(NC(=O)C(=O)c3c(C)[nH]c4ccccc34)CC2=O)cc1 (stereo unspecified)	nt	nt	-1.3%	-0.7%	-5.4	0%[15.4 µM]	4%
COC(=O)c1ccccc1NC(=O)c1ccccc1NS(C)(=O)=O	0.8	11%	3.9%[38.3 µM]	-2.6%	-1.0	?	-2%
CCNC(=O)COC(=O)c1cc(S(=O)(=O)N2CCCCC2)ccc1C	3.3	-3%	-1.7%	-0.9%	-2.0	-17%	-1%
O=C(CN1CCCCC1)N1CCCc2c1c(=O)oc1ccc(OCc3ccccc3)cc21	1.2	-3%	-0.3%	?	-3.6	-15%	-11%
CCn1ccnc1CN1CCN(CC=C(C)C)C(CCO)C1 (stereo unspecified)	-3.8	-1%	2.6%	-0.2%	-2.7	3%	25%
COc1ccccc1/C=C/C(=O)NCC(=O)N/N=C/c1ccc2c(c1)OCO2	3.6	-23%	6.2%	nt	-1.7	3%[15.4 µM]	0%
Cc1ccc2nc(Cl)c(-c3ccccc3)cc2c1	nt	nt	15%	nt	-6.1	7%[15.4 µM]	-11%

Bioassay records: PubChem, National Center for Advancing Translational Sciences (NCATS)
